# YopH PTP inh: YopH tyrosine phosphatase inhibitors, primary screen, biochemical, fluorescence Ex485/Em525; YopH tyrosine phosphatase [Yersinia enterocolitica]; inhibition, %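 (about 10 µM by stock and volumes)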; 0.16% of 140,000 active;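 active means inhibition of 50% or more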;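 further: controls were vehicle for no effect and minimum signal wells for full effect; inactives centre near -20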
# Mtb betalactam: beta-lactam sensitization of Mtb H37Rv, H37Rv. M. tuberculosis H37Rv growth with meropenem, percent inhibition; hits of this screen are not shown here. inhibition, % at 25 µM. 0.27% of 330,000 active;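 active means about 74% or more and at least 40 points above the plate without the antibiotic, then above 30% in a dose series; inconclusive means first-round hits that could not be retested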;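 further: growth measured after seven days incubation then overnight dye step; 0% = bacteria only wells and 100% = bacteria with antibiotic; twin plates without the antibiotic show which effects depend on it; some results filed as inactive read as strong as hits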
# Arbovirus inh: antivirals against arbovirus infection, primary screen, cell-based, full library, 10K replicate subset | AID 1251, 2008 | 0.37% of 200,000 active | arbovirus infection cell-based antiviral screen | inhibition, % at 10 µM;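 active means inhibition from about 30%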;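 further: bluetongue infection of BSR cells; cell survival read as ATP light after 72 h; 0% = infected wells without compound and 100% = uninfected wells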
# Mtb H37Rv: M. tuberculosis H37Rv growth inhibitors, H37Rv strain (AID 1626) | M. tuberculosis H37Rv growth inhibition; higher % means a stronger effect | inhibition, % at 10 µM; hits with a dose series show IC50 in µM | 0.95% of 220,000 active;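 active means confirmed in a dose series; inconclusive means inhibition above 80% but not taken into the dose series; inactive means below 80% or under 30% at every dose of the series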;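 further: bacteria incubated seven days before Alamar blue readout; 0% = bacteria only wells and 100% = bacteria with antibiotic wells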
# RecA intein inh: Mtb RecA intein splicing inhibitors, primary screen, biochemical, fluorescence, HTS; cell-free RecA intein splicing; inhibition, %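 (about 9 µM by stock and volumes)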; 0.75% of 290,000 active; in the data active means inhibition above about 30%; inconclusive means no clear call, values can overlap the other calls;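 further: 0% = vehicle wells and 100% = reference inhibitor control wells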
# Target sequence (P9WHJ3 whole entry, looked up): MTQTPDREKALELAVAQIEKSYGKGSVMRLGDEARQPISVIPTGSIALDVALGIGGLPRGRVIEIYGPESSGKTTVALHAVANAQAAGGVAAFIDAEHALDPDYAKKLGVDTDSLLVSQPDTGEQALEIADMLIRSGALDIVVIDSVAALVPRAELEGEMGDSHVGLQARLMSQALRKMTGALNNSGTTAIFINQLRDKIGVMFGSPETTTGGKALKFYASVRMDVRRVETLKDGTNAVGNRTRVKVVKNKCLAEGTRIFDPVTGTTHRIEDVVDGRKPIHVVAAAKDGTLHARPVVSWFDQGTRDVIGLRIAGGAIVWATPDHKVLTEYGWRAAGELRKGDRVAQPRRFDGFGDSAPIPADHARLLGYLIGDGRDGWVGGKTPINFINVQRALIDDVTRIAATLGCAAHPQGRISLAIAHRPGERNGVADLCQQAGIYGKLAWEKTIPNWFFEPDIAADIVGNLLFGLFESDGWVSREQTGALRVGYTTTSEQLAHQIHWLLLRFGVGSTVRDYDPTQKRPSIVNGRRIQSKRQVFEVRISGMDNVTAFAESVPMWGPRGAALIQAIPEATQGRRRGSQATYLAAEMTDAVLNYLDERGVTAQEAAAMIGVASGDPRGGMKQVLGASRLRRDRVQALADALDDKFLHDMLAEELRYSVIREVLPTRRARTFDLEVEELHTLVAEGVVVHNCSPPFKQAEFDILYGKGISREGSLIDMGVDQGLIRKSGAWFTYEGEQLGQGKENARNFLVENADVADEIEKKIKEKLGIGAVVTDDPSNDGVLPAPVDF
# Arbovirus inh repeat: recorded beside Arbovirus inh, whose call it bears; inhibition, %; measured here: 10K subset replicate screen; many hits read low in the repeat;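 first of two repeat runs on a subset; 0% = infected and 100% = uninfected wells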
# * marks the source's active call; other numbers are inactive results; ? = inconclusive; nt = no result given.
SMILES,YopH PTP inh,Mtb betalactam,Arbovirus inh,Mtb H37Rv,RecA intein inh,others
COc1cc(OC)c(C(=O)CCCN2CCCC2)c(OC)c1,-30,-1,6,-5%,2.3,
O=C(c1ccc2c(c1)OCO2)C1CCCN(C2CCN(CCc3ccccc3)CC2)C1 (centres undefined),nt,-1,-31,6%,-15,
C=C(C)CN=C1SC(C(=O)Nc2sc3c(c2C(=O)OC)CCC3)C(N)=C1C(N)=O (centres undefined),-5,56,-19,4%,2.6,
CCCCCOc1ccccc1C(=O)NCCC(=O)O,-174,-3,1,8%,-1.9,
CCOC(=O)c1ccc(NC(=O)CSc2nncn2-c2cccnc2)cc1,nt,-3,nt,nt,1.2,
C=CCNC(=O)C1CC(=O)N(c2ccc(OCC(=O)Nc3ccc(OC)cc3)cc2)C1 (centres undefined),-24,?,-1,-6%,1.1,
CN(C)C(=N)c1n[nH]nc1SCc1ccccc1,nt,-12,7,6%,-2.1,
COc1ccc(/C=C2\SC(=NCc3ccccc3)N(Cc3ccccc3)C2=O)cc1OC,-23,3,-23,-2%,-8.2,
O=C(c1cc2ccccc2oc1=O)N(Cc1cccs1)Cc1cccs1,-8,-6,14,-4%,6.1,
CC(NC(=O)C1CSC2(C)CCC(=O)N12)c1ccccc1Cl (centres undefined),nt,-7,nt,nt,-0.4,
COc1ccc(C(=O)/C=C/c2cccs2)c(OC(=O)c2cccc([N+](=O)[O-])c2)c1,-37,nt,-14,10%,0.0,
COc1cccc(CNC(=O)N[C@@H](C)C(=O)O)c1,nt,-6,nt,7%,-2.2,
COc1cc(NC2c3ccccc3C(=O)N2c2cc(C)ccn2)cc(OC)c1OC (centres undefined),-44,6,0,-2%,-1.0,
CCCNS(=O)(=O)c1cc2c3c(c1)CCN3C(=O)CC2,nt,-12,nt,nt,0.7,
FC(F)(F)c1ccccc1CNCCc1c[nH]c2ccccc12,nt,-1,nt,nt,0.1,
CCC/C=C(\CCC)C(NS(=O)(=O)c1ccc(C(F)(F)F)cc1)c1ccccc1 (centres undefined),-4,1,-37,-2%,12,
COc1ccc(OC)c(C2N(c3ccccn3)C(=O)C3CCCN32)c1 (centres undefined),-22,-6,3,-5%,-1.2,
CC(C)C(NS(=O)(=O)c1cccc2nsnc12)C(=O)Nc1nc2ccc(Cl)cc2s1 (centres undefined),-30,-6,-3,nt,0.8,
CC(C)C[C@H]1C(=O)N2CCC[C@H]2[C@]2(O)O[C@](NC(=O)[C@@H]3C=C4c5cccc6[nH]c(Br)c(c56)CC4N(C)C3)(C(C)C)C(=O)N12 (some centres undefined),-21,0,-10,15%,56*,
COc1ccc(OC)c(CNS(=O)(=O)c2c(C)nc3scc(C)n3c2=O)c1,nt,-1,nt,nt,-1.4,
Clc1ccc(C2CC(c3ccco3)n3ncnc3N2)cc1Cl (centres undefined),-1,100,16,33%,nt,
Cc1ccsc1C(=O)C1CCCN(Cc2cnc(N3CCCC3)s2)C1 (centres undefined),nt,-6,-3,-2%,1.5,
COc1cccc(CN2CC(C(=O)NCC3CCOCC3)CCC2=O)c1 (centres undefined),nt,7,nt,nt,-1.1,
CCn1c(=O)c(=O)n(CC)c2cc(S(=O)(=O)N3CCc4ccccc43)ccc21,2,11,-10,3%,-0.1,
CN(C)S(=O)(=O)c1ccc(NC(=O)N2CCN(c3ccccc3Cl)CC2)cc1,-43,-2,13,-3%,-2.3,
O=C(Nc1ccc(C(=O)NCc2ccccc2Cl)cc1)C1=CSCCO1,nt,11,nt,nt,-2.4,
O=C(Cc1cccs1)Nc1cccc(C(=O)Nc2ccco2)c1,-18,-6,-36,1%,nt,
CCCn1c(N2CCOCC2)nc2c1c(=O)[nH]c(=O)n2C,-8,7,2,-7%,0.4,
Oc1ccccc1CNCCCN1CCOCC1,nt,0,nt,nt,-1.5,
Cc1cccc(Cn2c(N3CCc4ccccc4C3)nc3c2c(=O)[nH]c(=O)n3C)c1,-10,-2,4,-5%,-0.4,

# For reference, part of the list above:
SMILES,YopH PTP inh,Mtb betalactam,Arbovirus inh,Mtb H37Rv,RecA intein inh,others
Clc1ccc(C2CC(c3ccco3)n3ncnc3N2)cc1Cl (centres undefined),-1,100,16,33%,nt,
Cc1ccsc1C(=O)C1CCCN(Cc2cnc(N3CCCC3)s2)C1 (centres undefined),nt,-6,-3,-2%,1.5,
COc1cccc(CN2CC(C(=O)NCC3CCOCC3)CCC2=O)c1 (centres undefined),nt,7,nt,nt,-1.1,

# Later entries.
SMILES,YopH PTP inh,Mtb betalactam,Arbovirus inh,Mtb H37Rv,RecA intein inh,others
Oc1ccc(/C=N/NC(=S)N2CCOCC2)cc1,nt,99,-3,7%,-1.8,
CSCC(=O)Nc1cc(C)on1,nt,-2,nt,nt,-0.8,
O=C(NNC(=O)c1ccccc1Cl)c1cccnc1,nt,1,nt,nt,-0.3,
Cc1nc(OCC(=O)c2ccc(Cl)cc2)c(C#N)c2c1COC(C)(C)C2,-5,-2,-17,-2%,-2.0,
O=C(CSc1oc(-c2ccc(F)cc2)nc1S(=O)(=O)c1ccc(F)cc1)NCC1CCCO1 (centres undefined),23,1,-14,3%,0.0,Arbovirus inh repeat=-13
CCc1c(C)sc(NC(=O)/C=C/C(=O)O)c1C(N)=O,nt,-2,3,-9%,nt,
FC(F)(F)c1cc(-c2cccs2)nc(N2CCOCC2)n1,-22,-1,8,1%,1.5,
CS(=O)(=O)Nc1cccc2cccnc12,-50,98,1,12µM*,nt,Arbovirus inh repeat=-15
Cc1csc(CN(C)C(=O)C2CCC(=O)N(CCN(C)C)C2)n1 (centres undefined),nt,-2,nt,nt,1.5,
O=C(COc1coc(CN2CCN(c3ccccc3F)CC2)cc1=O)Nc1ccccc1,nt,-4,nt,nt,0.4,
CN(C1CCCCC1)S(=O)(=O)c1ccc(NC(=O)C2CCCCC2)cc1,-33,-4,-10,3%,2.3,
O=C(c1cccs1)N1CCN(c2ccc(F)cc2)CC1,-2,-6,-5,-5%,-1.7,
Cc1ccc(C(=O)O)cc1S(=O)(=O)N1CCSCC1,-38,-3,-2,-1%,-1.7,
O=C(COc1ccc2c3c(c(=O)oc2c1)CCC3)NCc1cccnc1,nt,7,nt,nt,0.7,
O=C(N/N=C/c1ccc(-c2ccccc2C(=O)O)o1)c1cccs1,-13,5,0,7%,0.5,
CCC1Sc2ccc(S(=O)(=O)CCC(=O)NCc3ccc(C)o3)cc2NC1=O (centres undefined),nt,-1,nt,nt,0.6,
CCOCCCn1c(SCC(=O)Nc2ccc(OC)cc2)nc2ccccc2c1=O,nt,-4,nt,nt,1.7,
Clc1ccc(NCc2cccnc2)c(Cl)c1,nt,-7,nt,nt,-1.9,
Cc1sc2c(c1C)C(c1cccs1)=NCC(=O)N2CC(=O)NCc1cccs1,-34,-7,1,-3%,4.9,
FC(F)(F)c1cc(C(F)(F)F)c2ccc(N/N=C/c3ccccc3)nc2n1,-3,-9,4,-5%,-0.2,
COc1cccc(C(=O)Nc2cnc(NC(=O)c3ccco3)cc2C)c1,2,-5,13,-7%,-0.1,
Cc1ccc(NC(=O)Cn2c(=O)oc3ccccc32)cc1Cl,nt,-3,nt,nt,-0.3,
COc1ccc(-n2cnnc2SC(C)C(=O)Nc2cccc([N+](=O)[O-])c2)cc1 (centres undefined),-7,2,3,0%,-0.8,
CCCCn1c(N)c(Sc2ccc([N+](=O)[O-])cc2)c(=O)[nH]c1=O,nt,2,nt,nt,-1.3,
O=C(/C=C/c1ccco1)Nc1ccc(Oc2ccc(Cl)cc2)cc1,10,42,-10,10%,4.4,
COc1ccc(CCC(=O)NC2CCCN(Cc3ccc(Cl)cc3)C2)cc1OC (centres undefined),nt,-11,nt,nt,-0.7,
O=S(=O)(NCc1ccccn1)c1ccc2c(c1)OCCO2,-17,-12,2,-12%,-1.0,
CCOC(=O)c1c(C)c(C(=O)NCc2ccc3c(c2)OCO3)c(C)n1C,-10,20,-15,1%,-0.5,
CCOC(=O)CSc1nc2c(sc(=S)n2CCc2ccccc2)c(=O)n1Cc1ccco1,-46,-7,9,-1%,2.3,
CCN(CC)S(=O)(=O)c1ccc(N2CCOCC2)c(NS(=O)(=O)c2ccc(OC)cc2)c1,nt,2,nt,1%,2.3,
O=C1CN(c2ccccc2)C(=S)N1c1ccccc1,nt,-1,nt,nt,-0.8,
O=C(NCCc1ccccc1)C1CCC(CNS(=O)(=O)c2ccccc2)CC1 (centres undefined),nt,2,nt,nt,0.2,
COc1ccc(N2CCN(C(=O)c3cc(=O)c4cc(C)c(C)cc4o3)CC2)cc1,nt,-1,nt,nt,-1.8,
COc1ccc(/C=N\NC(=O)c2sc(N)nc2C)cc1OC,-15,nt,1,1%,-4.3,
CC1CCc2nc(N)c(C#N)c(-c3cccn3C)c2C1 (centres undefined),-34,9,1,3%,0.0,
CCOc1ccc(-c2csc(/C(C#N)=C\c3ccc(O)c([N+](=O)[O-])c3)n2)cc1,-23,90,-2,8.5µM*,3.9,
FC(F)(F)c1nnc2ccc(Sc3ccccn3)nn12,nt,-8,7,4%,nt,
CCOC(=O)C(Cc1ccccc1)C(=O)Nc1ccc(N(CC)CC)cc1 (centres undefined),-11,5,-5,-1%,-2.5,
O=C1C2ON(c3ccccc3)C(c3cccnc3)C2C(=O)N1c1ccccc1 (centres undefined),-24,-5,4,-7%,-0.8,
COc1cccc2cc(C(=O)NCc3ccc(C)cc3)c(=O)oc12,nt,0,nt,nt,0.3,
CC1=CC(c2ccc(Cl)cc2)n2nc(NS(=O)(=O)c3ccc(C)cc3)nc2N1 (centres undefined),-16,6,-4,-13%,-66,
NNC(=O)c1ccc(CSc2cccc3cccnc23)cc1,nt,12,16,0%,1.8,
CC(C)(C)c1cc(C(c2cccnc2)N2CCN(CCO)CC2)cc(C(C)(C)C)c1O (centres undefined),7,101,-24,?,38*,
CC(OC(=O)CCc1nc(=O)c2ccccc2n1C)C(=O)NCc1ccc2c(c1)OCO2 (centres undefined),nt,18,3,-1%,-1.6,
CCOC(=O)C1=C(C)NC(=S)NC1c1ccsc1 (centres undefined),nt,5,-2,2%,3.7,
CCCOC(=O)Nc1sc2c(c1C(=O)OCC)CCC2,-1,3,12,-1%,8.4,
COc1ccccc1C(=O)COC(=O)c1ccc(-n2cnnn2)cc1,nt,-4,nt,nt,0.6,
CCCCCCN1C=CC=C/C1=C/C=C(C#N)C#N,-14,58,7,-2%,-21,
Cc1occc1C(=O)Nc1nnc(-c2cccs2)s1,nt,-4,-7,-1%,0.2,
COc1ccc(NC(=O)NCCc2cccc(Cl)c2)cc1OC,nt,2,-17,-1%,0.9,
# Continuation.
SMILES,YopH PTP inh,Mtb betalactam,Arbovirus inh,Mtb H37Rv,RecA intein inh,others
Cc1cccc(NC(=O)CSc2c3c(nc4ccccc24)CCC3)n1,nt,-4,4,11%,17,
Cc1ccc(C(=O)N/C(=C\c2ccc(F)cc2)C(=O)NCCCn2ccnc2)cc1,nt,2,nt,nt,0.8,
CN1C(=O)/C(=C/c2cn(CC(=O)N3CCCCC3)c3ccccc23)c2ccccc21,-15,73,-4,1%,5.5,
CN(C)CCCOc1ccc(C(C)(C)c2ccccc2)cc1,-2,-13,14,-5%,1.7,
CCOC(=O)N1[C@@H]2C=C(C)[C@@H]2[C@@H]2[C@@H](C)C(=O)N21,-28,-4,8,1%,3.8,
COc1cc(C(=O)N2CCN(S(=O)(=O)c3cccs3)CC2)cc(OC)c1C,nt,2,-3,9%,0.9,
CCOC(=O)c1cnc(-n2cc(C)cn2)nc1Nc1ccccc1OCC,1,94,-8,19%,4.2,
O=C1c2ccccc2C(=O)N1OCCOCCOCCON1C(=O)c2ccccc2C1=O,-42,6,3,-1%,-3.0,
CCc1cc(C(=O)NNC(=S)NCC2CCCO2)cs1 (centres undefined),32,-2,-3,-6%,3.0,

# In the list so far, 4 have a cyano group.
SMILES,YopH PTP inh,Mtb betalactam,Arbovirus inh,Mtb H37Rv,RecA intein inh,others
Cc1nc(OCC(=O)c2ccc(Cl)cc2)c(C#N)c2c1COC(C)(C)C2,-5,-2,-17,-2%,-2.0,
CC1CCc2nc(N)c(C#N)c(-c3cccn3C)c2C1 (centres undefined),-34,9,1,3%,0.0,
CCOc1ccc(-c2csc(/C(C#N)=C\c3ccc(O)c([N+](=O)[O-])c3)n2)cc1,-23,90,-2,8.5µM*,3.9,
CCCCCCN1C=CC=C/C1=C/C=C(C#N)C#N,-14,58,7,-2%,-21,

# 3 compounds already listed, ordered by molecular weight, high to low:
SMILES,YopH PTP inh,Mtb betalactam,Arbovirus inh,Mtb H37Rv,RecA intein inh,others
COc1cc(C(=O)N2CCN(S(=O)(=O)c3cccs3)CC2)cc(OC)c1C,nt,2,-3,9%,0.9,
CCOC(=O)c1cnc(-n2cc(C)cn2)nc1Nc1ccccc1OCC,1,94,-8,19%,4.2,
CCOC(=O)N1[C@@H]2C=C(C)[C@@H]2[C@@H]2[C@@H](C)C(=O)N21,-28,-4,8,1%,3.8,

# Not all compounds are listed; count on the stated rates, not on these rows.
